High-throughput results deposited in PubChem BioAssay by several laboratories.
Mtb hypoxia inh: Mtb hypoxia fluorescent reporter inhibition | M. tuberculosis hypoxia-regulated fluorescent reporter, fluorescence | fluorescence inhibition, % (no concentration beside the values) | 300,000 compounds, 0.1% hits;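 active = 35 to 45% if threefold the growth effect, above 45% if 1.5-fold the growth effect; inactive = the rest, general growth blockers included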;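 also: wells of about 50 µL received 100 nL stock; 0% = vehicle wells and 100% = reference inhibitor wells; whole bacteria with a GFP reporter of the hypoxia response; strong numbers were not always called active; many hits fall short of the cut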
PrP 5UTR inh: suppresses PrP 5' UTR mRNA reporter expression. cell-based PrP 5' UTR mRNA reporter, plate reader. inhibition, % (concentration not given with the values). 340,000 compounds, 0.35% hits. AID 488862;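 active = every replicate at 50% or more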;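 also: 0 = median of the neutral control wells; tested in H4 reporter cells; numbers are from one replicate; inactives centre near -14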
ugtP null kill: kills S. aureus RN4220 lacking UgtP; growth inhibition, % (test concentration not listed); S. aureus RN4220 ugtP deletion, OD600 growth, 16 h; some inactives read as strong as hits; AID 1259309; 330,000 compounds, 0.54% hits;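 active = z-score under -3 and OD600 up to 0.15 on both plates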;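 also: plate controls were untreated wells for no effect and antibiotic for full effect; wells of about 80 µL received 100 nL stock; the first replicate is given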
Autofluor counter: counter-screen for toxin protease inhibitors: compound fluorescence; fluorescence intensity (no concentration beside the values); 360,000 compounds, 3.1% hits; compound autofluorescence counterscreen, microsphere flow cytometry; hits give high values;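 active = at least 3 SD above the mean of all compounds, about 16000 in these data; inconclusive = too few beads counted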;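 also: 100 nL of 1 mM stock went into each well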
RN4220 kill: S. aureus RN4220 growth inhibition; OD600, 16 h; inhibition, % (no concentration beside the values); 330,000 compounds, 0.33% hits; AID 1259311;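 active = z-score of -3 or lower and OD600 up to 0.18 on both plates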;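 also: plate controls were untreated cells for no effect and reference antibiotic for full effect; stock transfer was 100 nL into about 80 µL; one replicate is shown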
BJeLR viability: kills HRASV12-expressing BJeLR cells; BJeLR (HRASV12) viability, CellTiter-Glo ATP luminescence, 48 h; reference of the scale not given here; inhibition, % (concentration not given with the values); 300,000 compounds, 0.17% hits; AID 1554;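 active = replicate mean above 50%; inconclusive = above 50% but judged a plate artefact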;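 also: 50 nL library stock added to about 25 µL; numbers are from one replicate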
Mtb hypoxia inh growth: second read-out of Mtb hypoxia inh, no call of its own (marks repeat the call); growth inhibition, %; measured here: M. tuberculosis growth (absorbance);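 0% = vehicle and 100% = reference antibiotic; read after six days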
* marks the source's active call; other numbers are inactive results; ? = inconclusive; . = not tested or not shown; & = joins results of further samples. Hits appear at their usual frequency; overall some 4% were active at least once.

SMILES	Mtb hypoxia inh	Mtb hypoxia inh growth	PrP 5UTR inh	ugtP null kill	Autofluor counter	RN4220 kill	BJeLR viability
CSc1ncc(CN2CCN(C3CCN(C(C)C)CC3)C(CCO)C2)cn1 (stereo unspecified)	-5.9	7.7	-27.2	4.5	4212	-1.4	.
CCOc1ccc(Cc2onc3c2C(=O)CCC3)cc1OCC	3.7	2.0	-12.8	3.0	4247	9.4	6.4
C/C(=N\NC(=O)CC#N)c1cc2ccc(O)cc2oc1=O	.	.	-15.4	.	5182	.	-2.9
Cn1c(=O)c2c(nc(SCC(=O)N3CCc4ccccc4C3)n2C)n(C)c1=O	-0.7	14.0	-22.7	-3.0	7406	5.8	1.6
CC(CCc1ccccc1)NC(=O)c1ccc(F)cc1 (stereo unspecified)	.	.	-14.7	10.3	3915	-4.0	5.9
O=C(NNC(=O)C1CCN(S(=O)(=O)c2cccc(Cl)c2)CC1)C1CC1	5.4	-0.8	.	4.1	4174	9.1	6.5
COc1ccc(NC(=O)C23CC4CC(C2)CC(n2cnc(Br)n2)(C4)C3)cc1OC	4.8	3.1	-7.4	6.0	16534*	1.4	-6.6
CCOCCCNC(=S)N(CCN(CC)CC)Cc1cc2cc3c(cc2[nH]c1=O)OCCO3	-10.5	-8.9	-11.8	-2.3	6578	-2.7	-0.8
CC(C)CN1C(=O)NC(NC(=O)c2cccs2)(C(F)(F)F)C1=O (stereo unspecified)	-2.0	4.3	10.2	-0.3	21985*	2.6	1.4
CCCc1cc(=O)[nH]c(SCC(=O)NC2CCCCCCC2)n1	2.8	4.7	-7.2	4.2	2925	7.3	.
CSCCC(N=Cc1c(O)n(-c2ccc(F)cc2)c(=O)[nH]c1=O)C(=O)O (stereo unspecified)	1.9	10.4	.	-6.0	.	-15.5	-6.5
O=Cc1ccc(O)c(O)c1	-1.4	-3.9	-4.9	-5.1	6150	9.4	-11.5
CCOC(=O)CNc1c(-c2ccccc2)nc2ccc(Cl)cn12	7.7	1.5	-21.1	-8.5	3693	0.9	2.0
CC1C/C(=N\NC(=S)NCc2ccccc2)CC(C)(C)C1 (stereo unspecified)	.	.	-14.6	.	22911*	.	0.8
Cc1ccc2nc(SC(C)C(=O)NC3CCCc4ccccc43)[nH]c2c1 (stereo unspecified)	-11.4	12.2	-16.4	-12.3	2575	0.0	.
CC1=C(C#N)C(Nc2cc(C)ccn2)(C(F)(F)F)C(=O)N1 (stereo unspecified)	10.0	10.0	-10.5	-3.2	5679	4.6	-0.2
Cc1c(NC(=O)c2cccc(NC(=O)Cc3ccccc3F)c2)c(=O)n(-c2ccccc2)n1C	4.4	-1.8	3.5	7.6	3073	3.0	.
Cc1cc(C)cc(NC(=S)N2CCN(C(=O)c3ccco3)CC2)c1	10.4	4.4	-0.7	9.3	?	4.2	11.2
CC1CC(=O)N(CC(=O)NCc2ccc3c(c2)OCO3)c2ccccc2S1 (stereo unspecified)	9.5	5.3	.	5.2	10183	8.4	6.6
O=C(Cc1ccccc1)Oc1cccc(-n2cnnn2)c1	-0.9	4.3	-15.0	-1.4	2608	5.4	-5.3
COc1cscc1C(=O)O	2.0	-3.5	-27.5	2.6	4229	2.5	0.7
Cn1c(CNc2ccc(O)cc2)nc2ccccc21	0.8	-7.3	-30.7	8.6	3241	1.3	-18.9
CCCCCC1CC(C(C)=NNC(N)=O)OC1=O (stereo unspecified)	9.2	4.7	.	-6.5	.	-6.8	.
C=CCn1c(SCC(=O)Nc2ccc(C(=O)O)cc2)nc2sc(C)c(C)c2c1=O	3.5	-0.8	-3.6	8.7	2999	5.6	.
CC(NC(=O)c1ccco1)C(=O)N1CCN(c2ccccc2)CC1 (stereo unspecified)	-7.8	-12.1	-17.3	-4.4	6519	-1.1	2.8
CCn1c(SCC(=O)NCCc2ccccc2)nnc1C(C)C	9.4	14.4	-5.1	2.8	2701	4.9	2.8
COc1cccc(-c2nn(Cc3ccccc3)cc2C(=O)O)c1	-8.1	6.1	-14.7	-0.6	5723	8.7	-3.2
CCSc1nc2n(n1)C(c1cccc(F)c1)C1=C(CCCC1=O)N2 (stereo unspecified)	2.1	2.0	-31.2	-6.8	9161	0.7	0.9
C[C@H]1COC2=C1C(=O)C(=O)c1c2ccc2c1CCCC2(C)C	.	.	-37.9	41.5	3827	8.2	5.3
CSc1ccccc1OCc1cc(C(=O)N2CCSCC2)no1	9.4	7.8	-66.8	0.9	5109	1.7	1.6

A few values from the results shown:
C=CCn1c(SCC(=O)Nc2ccc(C(=O)O)cc2)nc2sc(C)c(C)c2c1=O in RN4220 kill = 5.6
COc1cccc(-c2nn(Cc3ccccc3)cc2C(=O)O)c1 in BJeLR viability = -3.2
COc1cscc1C(=O)O in BJeLR viability = 0.7
CC1=C(C#N)C(Nc2cc(C)ccn2)(C(F)(F)F)C(=O)N1 (stereo unspecified) in Autofluor counter = 5679
C[C@H]1COC2=C1C(=O)C(=O)c1c2ccc2c1CCCC2(C)C in BJeLR viability = 5.3

(list continues)
SMILES	Mtb hypoxia inh	Mtb hypoxia inh growth	PrP 5UTR inh	ugtP null kill	Autofluor counter	RN4220 kill	BJeLR viability
COc1cc(OC)cc(C(=O)N[C@H](C(=O)OCC(=O)Nc2sccc2C#N)C(C)C)c1	-1.5	6.9	-2.1	3.7	3436	1.5	-5.4
Cc1ccc(S(=O)(=O)Nc2ccc(O)c3cccnc23)cc1	11.0	17.1	-19.4	6.1	6006	2.4	-7.3
Nc1nc(SCc2ccccc2Cl)n[nH]1	3.3	4.8	-8.8	-6.3	10015	-3.0	7.9
Cc1cccc(NC(=O)Nc2ccc(C)cc2Br)c1	6.4	-1.2	-28.5	-0.3	10931	9.5	11.1
CCCn1c(N)cc(=O)n(C)c1=O	-1.2	-7.4	-18.4	16.3	4498	8.0	-4.5
CCOC(=O)N(CC)c1ccc(C(O)(C(=O)OCC)C(F)(F)F)cc1 (stereo unspecified)	4.4	16.5	-4.4	0.6	4818	0.4	-0.1
O=C(/C=C(\c1ccc(Cl)cc1)n1cncn1)c1ccc(Cl)cc1	36.0*	13.1*	-19.2	2.2	6270	-1.6	-7.0
CC(=NNC(=O)c1cc(C(C)C)[nH]n1)c1ccco1	-0.5	-7.4	.	-1.8	.	0.8	.
COCCN(C(=O)c1ccco1)C(C(=O)NC1CCCC1)c1cccs1 (stereo unspecified)	-5.8	-5.2	-17.9	1.4	4783	-4.4	-4.7
O=C(C=Cc1ccc([N+](=O)[O-])cc1)NCC1CCCO1 (stereo unspecified)	0.8	15.2	.	-2.3	.	2.6	.
COc1cc(Br)cc(C=NNC(=O)Cc2ccccc2)c1O	9.7	1.5	.	9.1	.	7.4	.
CCS(=O)(=O)N1CCN(c2cccc(C)c2C)CC1	2.6	3.3	-18.0	-4.2	3290	-12.8	-2.9
CC1(c2ccc3ccccc3c2)NC(=O)N(CC(N)=O)C1=O (stereo unspecified)	6.8	2.3	1.9	9.3	2937	3.6	1.5
COc1ccc(NCc2nnc(-c3ccccc3)o2)cc1	8.8	12.7	-33.5	0.2	5729	3.0	-0.6
CCn1ncc(/C=N/NC(=O)c2ccc3c(c2)OCO3)c1C	.	.	-25.2	.	4018	.	16.6
O=C(Nc1ccon1)c1cc2c(s1)CCCC2	12.8	4.3	-165.8	-3.9	22744*	3.0	9.1
CCN(CC)c1ccc(C=NNc2ccc([N+](=O)[O-])cn2)cc1	25.7	3.4	-108.8	39.0	5173	-3.3	.
CC1=NN(c2ccc(Cl)cc2)C(=O)C1	13.7	3.1	-24.4	9.1	2606	2.6	2.2
CCCCCCN(C(=O)CCCN1C(=O)NC(c2ccc([N+](=O)[O-])cc2)C(C(=O)OCc2ccccc2)=C1C)C(C)C(=O)NCCCC (stereo unspecified)	0.6	10.7	-12.0	-18.4	3505	-4.4	.
COc1cccc(CNC(=O)c2nnn(CC(=O)Nc3ccc(C)c(C)c3)c2N)c1	-0.1	-2.0	-22.3	-1.3	5305	7.0	4.4
O=C(NCc1ccc(Cl)cc1)C1CCN(S(=O)(=O)c2ccc(F)cc2)CC1	0.9	3.5	-3.4	-4.1	3488	-0.8	-1.3
CN(Cc1ccccc1)C1(CNC(=O)CCC(F)(F)F)Cc2ccccc2C1	3.6	-2.5	-16.4	8.1	4234	0.7	-2.8
N#Cc1ccccc1NC(=O)Nc1cccs1	2.6	3.3	8.4	-0.9	?	0.0	4.4
O=C(c1cc(COc2ccc(F)cc2Cl)on1)N1CCCCCC1	7.9	9.8	-72.0	0.3	5451	3.1	-0.7
O=C(COC(=O)/C=C/c1cccc(Br)c1)NC1CCCCCC1	3.0	-4.6	-12.8	4.1	3014	3.0	.
CCCCCc1cc(=O)oc2c(C(CCN3CCCC(C)C3)c3ccc4c(c3)OCO4)c(OC)cc(OC)c12 (stereo unspecified)	.	.	-3.2	.	3605	.	28.2
Cc1ccc(-c2csc3nc(C)n(-n4c(C)ccc4C)c(=O)c23)o1	12.3	17.9	-11.3	2.5	3228	-10.0	-2.0
Cc1ccsc1C(=O)C1CCCN(Cc2cnc(N)nc2)C1 (stereo unspecified)	1.2	-3.1	-21.3	6.0	3456	10.6	14.8
Cc1cccc(NC(=S)N2CCN(c3ccccc3F)CC2)c1C	0.8	-13.4	0.4	5.9	4002	2.3	7.3
Cc1c(C(c2ccc(O)cc2)c2c(O)c3ccccc3oc2=O)c(=O)n(-c2ccccc2)n1C (stereo unspecified)	-6.7	-3.7	-16.9	47.8	2203	2.5	-16.3
CC(C)(C)OC(=O)N1CCN(c2ccc(NC(=O)Cn3nnc(-c4ccccc4)n3)cc2)CC1	-1.3	-1.3	-12.6	3.5	3701	0.7	1.8
COC(=O)/C(=C1/Oc2ccc(C)cc2S1)C(F)(F)F	-0.2	5.9	-33.5	12.5	1996	20.9	-0.1
CC(C)c1cc(NCCOCCO)n2c(nc3ccccc32)c1C#N	6.4	18.1	-20.6	-3.8	3989	3.4	-2.3
CC(=O)c1cccc(NCC(=O)N2CCN(S(=O)(=O)c3ccccc3)CC2)c1	-8.1	1.1	-32.6	5.0	3555	7.6	.
CN1CCN(c2oc(Cc3cccc4ccccc34)nc2C#N)CC1	3.4	14.4	-19.1	-2.3	?	-1.0	15.6
COc1ccc(NS(=O)(=O)c2ccc(C)c(C(=O)NCC(c3ccco3)N(C)C)c2)cc1 (stereo unspecified)	5.5	-5.9	-0.6	3.9	?	5.9	3.5
O=c1c2cccnc2[nH]c(=S)n1CCCN1CCN(c2ccc(F)cc2)CC1	7.7	7.3	2.0	3.9	3974	1.7	16.3
CCC1CCCCN1CCCNC(=O)c1ccc(CS(=O)(=O)Cc2ccc(Cl)cc2)o1 (stereo unspecified)	5.9	-0.8	-25.1	0.7	5285	-0.5	-4.7
NC(=O)C1=CC(c2ccc(Br)cc2)CC(OCc2ccc(CO)cc2)O1 (stereo unspecified)	2.6&4.7	4.5&2.2	.	4.3&1.1	.	8.0&4.0	.
CCN(CC(=O)NC(C)(C)C)C(=O)C(c1ccccc1)c1ccccc1	6.8	5.5	2.9	8.3	3224	5.9	4.6
CC(C)C(CCNC(=O)CN1C(=O)c2ccccc2C1=O)c1ccco1 (stereo unspecified)	10.1	7.6	-30.4	2.9	5593	0.2	7.4
Cc1ccc(C)c(OCc2cc(C(=O)N3CCC(N4CCCC(O)C4)CC3)no2)c1 (stereo unspecified)	4.4	1.5	-19.2	4.4	7481	0.4	-2.0
O=C(Cc1ccc(F)cc1)c1ccc(O)cc1O	6.9	7.6	-37.4	-2.4	19761*	2.7	9.7
CN(C)C(/C=C/Nc1ccc(O)cc1)=C(C#N)C#N	11.3	-2.8	-17.8	9.8	4342	4.6	6.3
O=C(CCN1C(=O)C2C3CCC(C3)C2C1=O)Nc1cccc(Cl)c1 (stereo unspecified)	-2.8	-6.5	4.7	10.5	3933	5.9	-12.3
CCOCc1cnc(C)nc1NCC(=O)c1c(C)n(C)c2ccc(OC)cc12	.	.	-7.2	4.1	2210	-2.2	-0.1
CCn1c2ccc(/C(C)=N\O)cc2c2cc(/C(C)=N\O)ccc21	.	.	-27.5	.	4426	.	-2.1

An excerpt from above, reduced to RN4220 kill:
compound | RN4220 kill
CC(=O)c1cccc(NCC(=O)N2CCN(S(=O)(=O)c3ccccc3)CC2)c1 | 7.6
Cc1cccc(NC(=O)Nc2ccc(C)cc2Br)c1 | 9.5
